Screens as filed in PubChem.
PMP22 txn – Cell-based coincidence reporter assay to measure PMP22 gene transcription in S16 Pmp22-F2sN cells - Primary screen; Potency, µM (series often up to 57.5 µM), without a hit: at the top dose activity change, negative = inhibition, usual class: inhibitors; S16 Pmp22-F2sN Schwann cells (luciferase reporters placed in the Pmp22 gene), FLuc/NLuc coincidence luminescence, 24 h; 2% of 43,000 active; AID 1508649, 2021; active = clear falling dose curves in both reporters; inconclusive = both reporters move, but less clearly or upward; inactive = either reporter flat; the % is the NLuc reporter signal; note: % is set by controls: 0 for no effect and ±100 for the full control effect; some results filed as inactive show a strong effect at the top dose
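S16 Schwann cells carrying FLuc/NLuc coincidence reporter in the Pmp22 3' UTR treated with compound 24 h at 37C; FLuc then NLuc luminescence read sequentially by dual-luciferase reagents.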
HTT prom inh – Primary qHTS for Identification of Small Molecule Inhibitors of Huntingtin Promoter Activity. AID 1508623, 2021. HEK293 HTT promoter firefly luciferase reporter (activity 0% = vehicle and -100% = no light), 24 h. Potency, µM (series often up to 57.5 µM), for the others: at the top dose activity change, negative = inhibition, hits mostly inhibitors. 0.93% of 48,000 active; active = well fitted inhibition curve with a large enough effect; inconclusive = small, poorly fitted or top-dose-only effect; inactive = no such curve, though single readings can be large or run the other way; note: nearly all actives have a fitted effect of over 50% in size
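HEK293 Fluc reporter, 2,500 cells/well, 24 h pre-culture; cpds up to 57.5 uM final, 24 h 37 degrees C; Dual-Glo, 10 min RT; normalized vehicle = 0%, zero RLU = -100%.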
Active calls of the source: *; ? = inconclusive; / = not tested or not shown; [ ] = remark or other dose. Potency is the fitted concentration of half-maximal effect.

SMILES	PMP22 txn	HTT prom inh
Cc1c(S(=O)(=O)c2cccc(Cl)c2)nnn1-c1cccc(C(F)(F)F)c1	?	?
CCC(=O)N1c2ccccc2CC1C(=O)NCCc1ccccc1C (configuration not stated)	5%	-24%
CCCN(C(=O)Cn1cc(S(=O)(=O)N2CCN(c3ccccc3F)CC2)c2ccccc2c1=O)c1cccc(C)c1	-7%	-15%
COc1ccc(CNC(=O)CCCc2nnc3n(C(C)C)c(=O)c4sccc4n23)cc1	-6%	-25%
CC(C)OC(=O)c1cc2c(OCC(O)CNC(C)(C)C)cccc2[nH]1 (configuration not stated)	/	0%
COc1ccc(NC(=O)CCNS(=O)(=O)c2cccc3nsnc23)cc1Cl	-17%	-5%
O=C(NC1CC(=O)N(c2ccc(F)cc2)C1)c1cccs1 (configuration not stated)	29%	5%
CC(C)C(=O)Nc1nnc(SCc2cc(=O)n3ccccc3n2)s1	-5%	-4%
CCCCn1cc(S(=O)(=O)c2ccc(OC)cc2)c(=O)c2cc(F)c(F)cc21	-6%	-27%
COc1cccc(-c2ccc3c(N)c(C(=O)Nc4ccccc4C)sc3n2)c1	-4%	-18%
C=Cc1ccc(Cn2c(C(=O)OC)cc3sc(C)cc32)cc1	5%	16%
Cc1scc(CN2CCN(c3ccc(F)cc3)CC2)c1C	3%	-5%
CCOc1ccc(C(=O)Nc2ccc3nc4c(c(Nc5ccccc5OC)c3c2)CCCC4)cc1	?	?
COc1ccc(S(=O)(=O)c2c(C(=O)c3ccc(C)c(C)c3)cnc3ccc(F)cc23)cc1	?	?
CCOCCCn1c(SCC(=O)NCc2ccccc2)nc2c(sc3ccccc32)c1=O	?	-5%
O=C(CN1CCN(Cc2ccc(F)cc2Cl)S1(=O)=O)Nc1ccc(F)cc1	-61%	-20%
CN(C1CCCCC1)S(=O)(=O)c1ccc(F)c(C(=O)Nc2ccc(C(F)(F)F)cc2)c1	-13%	?
COc1cccc(NS(=O)(=O)c2ccc3[nH]cc(C(=O)N4CCCCCC4)c(=O)c3c2)c1	-22%	-4%
CCc1ccc(S(=O)(=O)N(C(=O)c2ccncc2)c2ccc3oc(C)c(C(=O)OC)c3c2)cc1	?	13µM*
COc1ccc(-c2onc(C)c2C)cc1S(=O)(=O)NC1CCC(C)CC1 (configuration not stated)	?	?
COc1ccc(NC(=O)Cn2c(=O)n(Cc3ccc4c(c3)OCO4)c(=O)c3ccc(C(=O)NC4CCCCC4)cc32)cc1	?	-4%
COc1ccc(CCNC(=O)c2cc3c(=O)n(C)c4ccccc4c3s2)cc1OC	-8%	-16%
COc1ccccc1CNC(=O)Cn1nc(C)c2nn(-c3ccc(Cl)cc3)c(C)c2c1=O	-4%	?
COc1ccc(OC)c(NC(=O)C2CCN(S(=O)(=O)c3ccc4c(c3)CC(C)N4C(C)=O)CC2)c1 (configuration not stated)	-21%	?
COc1cccc(C2CC(=O)Nc3c2c(=O)[nH]c2nc4ccccc4n32)c1 (configuration not stated)	-3%	-5%
CCn1ccc2cc(S(=O)(=O)N3CCC(C(=O)NCc4ccc(OC(C)C)cc4)CC3)ccc21	8%	0%
CC(C)(C)OC(=O)N1CCC(c2c(C(=O)N3CCN(c4ncccn4)CC3)cnn2-c2ccc(F)cc2F)CC1	-3%	-1%
CC(C)Oc1ccc(C(=O)N(Cc2ccc(N(C)C)cc2)C2CCS(=O)(=O)C2)cc1 (configuration not stated)	0%	-17%
O=C(Cn1c(=O)c2ccccc2n(CC(=O)Nc2ccc(F)cc2)c1=O)NCCc1ccccc1	3%	-20%
CSc1ccc(CCNC(=O)c2ccc(-n3c(C)cc4c3CCCC4)cc2)cc1	?	-13%
CN1CCN(C(=O)Cn2ncc3c4ccccc4n(Cc4ccc(F)cc4)c3c2=O)CC1	-2%	-8%
COc1ccc(-n2c(C)c(C(C)=O)c3cc(OC(=O)COc4ccccc4)ccc32)cc1	?	-19%
CCn1cc(C(=O)N2CCN(c3ccccc3)CC2)c(=O)c2cc(S(=O)(=O)N3CCC(C)CC3)ccc21	-4%	-6%
Cc1cccc(N(C)C(=S)Oc2ccc3c(c2)C2CCC3C2)c1 (configuration not stated)	/	11%
Cc1ccc(-c2nc3ccc(Br)cn3c2Nc2ccc3c(c2)OCO3)o1	-45%	34%[activator]
Cc1ccc(-n2ncc(C(=O)N3CCN(C4CCCCC4)CC3)c2C2CCN(C(=O)OC(C)(C)C)CC2)cc1C	?	-4%
Cc1ccc(Cn2c(CNC(=O)c3cccc(C)c3)nc3ccccc32)cc1	-10%	-12%
Cc1ccc(NCc2ccccc2-c2nnc(-c3ccccc3Cl)o2)cc1Cl	?	14%
Cc1ccc(S(=O)(=O)c2[nH]c(-c3ccccc3)nc2SC(C)C(=O)O)cc1 (configuration not stated)	12%	-4%
CCN(c1ccccc1)S(=O)(=O)c1nnc(NC(=O)C(C)(C)C)s1	11%	-16%
COc1cc(C(=O)Nc2ccc(OCc3cc(=O)n4cc(C)sc4n3)cc2)cc(OC)c1OC	5%	-19%
Cc1ncc(CSSCc2cnc(C)c(O)c2CO)c(CO)c1O	/	6%
COc1ccc(S(=O)(=O)N2CCN(c3ccccc3OC)CC2)cc1-c1noc(C)n1	-13%	5%
CC(=O)c1cc2c(cc1N/C(=N/S(=O)(=O)c1ccc(Br)cc1)c1ccccc1)OCO2	-27%	-26%
Cc1ccc(C)c(CN2C(=O)c3ccccc3S(=O)(=O)c3ccc(C(=O)N4CCCCCC4)cc32)c1	?	?
COc1ccc(C2c3c(n(C)c4ccccc34)C(=O)N2CC(=O)Nc2ccc(Cl)cc2)cc1 (configuration not stated)	-2%	-30%
COc1cccc(CNC(=O)C2=C(C)C(=O)OC23CCCCCC3)c1	-7%	-14%
CC1=C(C(=O)Nc2cccnc2)C(c2ccc(Cl)cc2)n2nc(SCc3ccccc3)nc2N1 (configuration not stated)	-3%	-5%
Cc1ccc(S(=O)(=O)NCc2nc3cccnc3n2Cc2ccccc2Cl)c(C)c1	-15%	-18%
CC(=O)Nc1ccccc1-c1nc2ccccc2n(C(C)C(=O)Nc2ccccc2C(F)(F)F)c1=O (configuration not stated)	5%	-18%
CCN(CC)CCNC(=O)C1CCCN(c2ncnc3onc(C)c23)C1 (configuration not stated)	-28%	1%
CC(=O)c1ccc(Oc2nc(C)nc3c2oc2ccccc23)cc1	-26%	?
O=C(NC1CC(=O)N(c2cccc(F)c2)C1)C(c1ccccc1)c1ccccc1 (configuration not stated)	27%	-5%
COc1ccc(CNS(=O)(=O)c2ccc(-c3cnc(C4CC4)o3)cc2)cc1	-89%	?
CC(=O)Nc1cccc(C(=O)NCc2ccc3c(c2)CCN3C(=O)c2ccc(F)cc2)c1	0%	-8%
CCOC(=O)N1CCc2c(sc3c2c(=O)n(Cc2ccccc2)c(=O)n3Cc2cccc(C)c2)C1	-5%	-11%
CCCCN1C(=O)c2[nH]nc(-c3ccccc3O)c2C1c1ccc(C(C)(C)C)cc1 (configuration not stated)	?	?
COc1cccc2c1cc1c(=O)n(CC(=O)NCCCN3CCN(C)CC3)nc(C)n12	-30%	-2%
CCc1ccccc1N1CC(c2nc3ccccc3n2Cc2cccc(C)c2)CC1=O (configuration not stated)	?	?
COCCCNc1nc2c(-c3cccc(Br)c3)nnn2c2ccccc12	-39%	4%

The final seven records of the part before are carried over, then new ones follow.
SMILES	PMP22 txn	HTT prom inh
COc1ccc(CNS(=O)(=O)c2ccc(-c3cnc(C4CC4)o3)cc2)cc1	-89%	?
CC(=O)Nc1cccc(C(=O)NCc2ccc3c(c2)CCN3C(=O)c2ccc(F)cc2)c1	0%	-8%
CCOC(=O)N1CCc2c(sc3c2c(=O)n(Cc2ccccc2)c(=O)n3Cc2cccc(C)c2)C1	-5%	-11%
CCCCN1C(=O)c2[nH]nc(-c3ccccc3O)c2C1c1ccc(C(C)(C)C)cc1 (configuration not stated)	?	?
COc1cccc2c1cc1c(=O)n(CC(=O)NCCCN3CCN(C)CC3)nc(C)n12	-30%	-2%
CCc1ccccc1N1CC(c2nc3ccccc3n2Cc2cccc(C)c2)CC1=O (configuration not stated)	?	?
COCCCNc1nc2c(-c3cccc(Br)c3)nnn2c2ccccc12	-39%	4%
COc1cc(Cl)c(C)cc1NC(=O)CN1c2ccccc2S(=O)(=O)c2ccccc21	3%	-19%
CCC(Sc1nnc(-c2ccc(OC)cc2)c(-c2ccc(OC)cc2)n1)C(=O)Nc1cccc(OC)c1 (configuration not stated)	13%	-5%
Cc1ccc(S(=O)(=O)N(CC(=O)N2CCc3ccccc3C2)c2ccc(C)c(C)c2)cc1	?	?
Cc1cc(C)cc(NC(=O)CNS(=O)(=O)c2ccc3nc(C)sc3c2)c1	5%	-16%
COc1ccc(NC(=O)[C@H]2O[C@@H]3OC(C)(C)O[C@@H]3[C@H]3OC(C)(C)O[C@H]32)c(OC)c1	-29%	24%
COc1ccc(CNC(=O)CCc2c(C)nc3c(c(C)nn3-c3ccccc3)c2C)cc1	-16%	-1%
CCOc1ccccc1NS(=O)(=O)c1c(C)nc2sccn2c1=O	5%	-10%
CN(Cc1ccccc1)C(=O)C1CCC(CNS(=O)(=O)c2ccc3c(c2)CCCC(=O)N3)CC1 (configuration not stated)	?	?
Cc1nn2c(=O)cc(COC(=O)CNC(=O)c3ccc(F)cc3)nc2s1	3%	3%
CC(C)(C)c1[nH]cnc1C=c1[nH]c(=O)c(=Cc2ccccc2)[nH]c1=O	/	-30%[116 µM]
Cc1cccc(-n2c(=O)c3ccccc3n(Cc3ccccc3C#N)c2=O)c1	-3%	-25%
O=C1CCc2cc(S(=O)(=O)NC(C(=O)Nc3cccc(F)c3)c3ccccc3)ccc2N1 (configuration not stated)	-16%	8%
Cc1cc(-c2ccc(S(=O)(=O)N3CCN(c4ccc(Cl)cc4)CC3)s2)on1	?	-6%
CCCc1cc(N2CCN(c3ccc(OC)cc3)CC2)n2cnnc2n1	?	?
CCc1nnc(NC(=O)c2nc(SCc3ccccc3F)ncc2Cl)s1	-24%	-21%
Cc1ccc(Nc2sc(C(=O)c3ccccc3)c(N)c2C(=O)Nc2ccc(Cl)cc2)cc1	?	?
CS(=O)(=O)CCNCc1ccc(-c2ccc3ncnc(Nc4ccc(OCc5cccc(F)c5)c(Cl)c4)c3c2)o1	/	?
COc1ccc(-c2nn3c(=O)cc(CN4CCN(C(=O)c5ccc(OC)c(OC)c5)CC4)nc3s2)cc1	13%	-13%
CC(=O)c1ccc(NC(=O)Cn2ncc3c(C)n(Cc4ccc(F)cc4)c(C)c3c2=O)cc1	-19%	-8%
COc1cc2c(C(=O)N(C)c3cccc(C(F)(F)F)c3)cn(CC(C)C)c(=O)c2cc1OC	-21%	-10%
O=C(CCCn1c(=O)c2sccc2n(Cc2cccc(Cl)c2)c1=O)NCc1ccc2c(c1)OCO2	-11%	-5%
CCc1ccc2nc(N(CCN(CC)CC)C(=O)c3cccs3)sc2c1	?	13%
CN(C)S(=O)(=O)c1ccc(C(=O)NCCSc2c(-c3ccc(Br)cc3)[nH]c3ccccc23)cc1	-25%	?
Cc1ccc(N2CC(C)Cn3c2nc2c3c(=O)n(Cc3cccc(Cl)c3)c(=O)n2C)cc1 (configuration not stated)	-4%	-3%

Some of the entries above in another layout:
| SMILES | PMP22 txn | HTT prom inh |
| --- | --- | --- |
| Cc1ccc(Nc2sc(C(=O)c3ccccc3)c(N)c2C(=O)Nc2ccc(Cl)cc2)cc1 | ? | ? |
| CS(=O)(=O)CCNCc1ccc(-c2ccc3ncnc(Nc4ccc(OCc5cccc(F)c5)c(Cl)c4)c3c2)o1 | / | ? |
| COc1ccc(-c2nn3c(=O)cc(CN4CCN(C(=O)c5ccc(OC)c(OC)c5)CC4)nc3s2)cc1 | 13% | -13% |

Continuation.
SMILES	PMP22 txn	HTT prom inh
CCOc1ccccc1NC(=O)c1cc(S(=O)(=O)N2CCOCC2)cn1C	-26%	-3%
Cc1cccc(NC(=O)Nc2nnc(N(C)Cc3ccccc3)s2)c1	4%	?
Cc1ccc(Sc2c(C)nn(-c3ccccc3)c2OC(=O)C(C)(C)C)cc1	-11%	-10%
CN(C)c1ccc(C2C=C(c3ccccc3)Nc3nnnn32)cc1 (configuration not stated)	?	-1%
CC(=O)c1ccc(NC(=O)C2CCCN(S(=O)(=O)c3cn(C)cn3)C2)cc1 (configuration not stated)	14%	-16%
OCCc1ccccc1	/	10%
CC(C)OCCCn1c(SCc2ccccc2C#N)nc2c(sc3ccccc32)c1=O	-3%	-13%
COc1cc(OC)c(NC(=O)N2CCCn3nc(C)cc32)cc1Cl	4%	-7%
CC(=O)c1cccc(NC(=O)C2=CC(c3ccco3)=NS(=O)(=O)N2C)c1	?	-7%
COc1ccc(-c2cn3c(n2)sc2cc(C(=O)N4CCCCC4)ccc23)cc1	?	?
O=C(CSc1nc2c([nH]c3ccccc32)c(=O)n1-c1ccc(F)cc1)NCc1ccc(F)cc1	?	?
O=C1Nc2ccccc2Oc2cc(Oc3ccc(Cl)cc3)ccc21	-85%	-32%
Cc1ccc(NC(=O)Cn2c(=O)n(CCCCCC(=O)NCc3ccc(F)cc3)c(=O)c3sccc32)c(C)c1	?	-28%

Some of the compounds tested (hit frequency here may not be typical).
